A1 apoptosis 2: A1 inhibitors via caspase activation, primary screen, cell-based, luminescence, HTS, two replicates. MEF A1-2A-BIM cells, caspase-Glo luminescence, 3 h; percent of clofoctol response, DMSO zero. caspase activation, % (concentration not given with the values). 24,000 tested, under 10 active. AID 2465, 2010; in the data active = caspase activation above about 5.9%;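 note: wells of about 30 µL received 50 nL stock; the first replicate is given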
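Material: A1-2A-BIM-expressing MEF cells. Buffer or medium: RPMI-1640 plus 10% FBS. Incubation: cells settled overnight, compound exposure 3 h at 37 °C, 5% CO2. Signal: Caspase-Glo 3/7 luminescence, 1 h at room temperature.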
Active calls of the source: *. These rows are one share of the data (hit frequency here may not be typical).

#	SMILES	A1 apoptosis 2
1	O=C(NO)c1cccc(C(=O)N/N=C/c2cccc(B(O)O)c2)c1	-0.1
2	COc1ccc(S(=O)(=O)Nc2ccc3c(c2)C(=O)N([C@@H](C)CO)C[C@H](C)[C@@H](CN(C)C(=O)NC2CCCCC2)OCCCC[C@H](C)O3)cc1	0.5
3	C[C@@H]1CN([C@@H](C)CO)C(=O)c2cc(NC(=O)C3CCCCC3)ccc2O[C@@H](C)CCCCO[C@@H]1CN(C)S(=O)(=O)c1ccc(F)cc1	-0.5
4	C[C@H]1CCCCO[C@H](CN(C)S(=O)(=O)c2ccc(Cl)cc2)[C@@H](C)CN([C@@H](C)CO)C(=O)c2cc(NC(=O)NC3CCCCC3)ccc2O1	-1.5
5	O=C(CCCCC(=O)N/N=C/c1ccoc1)NO	1.2
6	COc1ccc(S(=O)(=O)Nc2ccc3c(c2)C(=O)N([C@@H](C)CO)C[C@@H](C)[C@H](CN(C)C(=O)C2CCCCC2)OCCCC[C@@H](C)O3)cc1	0.3
7	CC(C)NC(=O)Nc1cccc2c1O[C@H](CN(C)S(=O)(=O)c1cccs1)[C@H](C)CN([C@@H](C)CO)C2=O	-0.4
8	COc1ccc(NC(=O)N(C)C[C@@H]2OCCCC[C@H](C)Oc3ccc(NS(=O)(=O)c4ccc(C)cc4)cc3C(=O)N([C@H](C)CO)C[C@@H]2C)cc1	-0.6
9	O=C(NO)c1ccc(C(=O)N/N=C/c2ccccc2[N+](=O)[O-])cc1	1.4
10	Cc1noc(C)c1NC(=O)Nc1cccc2c1O[C@@H](CN(C)C(=O)NC1CCCCC1)[C@@H](C)CN([C@@H](C)CO)C2=O	0.6
11	C[C@H]1CN([C@@H](C)CO)C(=O)c2cc(NC(=O)C3CCCCC3)ccc2O[C@@H]1CN(C)CC1CC1	0.1
12	Cc1ccc(S(=O)(=O)Nc2ccc3c(c2)C(=O)N([C@@H](C)CO)C[C@@H](C)[C@H](CN(C)Cc2ccc4c(c2)OCO4)OCCCC[C@@H](C)O3)cc1	0.7
13	C[C@@H]1CN([C@@H](C)CO)C(=O)c2cccc(NS(=O)(=O)c3ccc(Cl)cc3)c2O[C@H]1CN(C)Cc1ccc(C(=O)Nc2ccccc2N)cc1	-1.0
14	Cc1noc(C)c1S(=O)(=O)N(C)C[C@H]1Oc2ccc(NC(=O)Nc3ccc4c(c3)OCO4)cc2CC(=O)N([C@@H](C)CO)C[C@H]1C	-0.4
15	C[C@@H]1CN([C@@H](C)CO)C(=O)Cc2cc(NC(=O)Cc3cn(C)c4ccccc34)ccc2O[C@@H]1CN(C)Cc1ccccc1	-0.5
16	C[C@H]1CCCCO[C@H](CN(C)C(=O)c2ccccc2)[C@@H](C)CN([C@@H](C)CO)C(=O)c2cc(NC(=O)C3CCCCC3)ccc2O1	-0.1
17	C[C@@H]1CN([C@@H](C)CO)C(=O)c2cc(NC(=O)NC3CCCCC3)ccc2O[C@@H]1CN(C)C(=O)Nc1cccc2ccccc12	0.5
18	CNC[C@H]1Oc2c(NS(=O)(=O)c3ccc(Cl)cc3)cccc2C(=O)N([C@@H](C)CO)C[C@@H]1C	-1.3
19	C[C@@H]1CCCCO[C@@H](CN(C)C(=O)CCCN(C)C)[C@@H](C)CN([C@H](C)CO)C(=O)c2cc(N(C)C)ccc2O1	0.0
20	COc1ccc(CN(C)C[C@@H]2Oc3ccc(NC(=O)Nc4cccc5ccccc45)cc3CC(=O)N([C@@H](C)CO)C[C@@H]2C)cc1	2.1
21	C[C@@H]1CCCCO[C@H](CN(C)Cc2ccccc2)[C@@H](C)CN([C@H](C)CO)C(=O)c2cc(NS(C)(=O)=O)ccc2O1	-0.9
22	C[C@@H]1CCCCO[C@@H](CN(C)C(=O)Nc2ccc(F)cc2)[C@H](C)CN([C@H](C)CO)C(=O)c2cc(NS(=O)(=O)c3ccc(F)cc3)ccc2O1	-0.1
23	C[C@@H]1CN([C@H](C)CO)C(=O)Cc2cc(NS(=O)(=O)c3cn(C)cn3)ccc2O[C@@H]1CN(C)Cc1ccc2c(c1)OCO2	0.5
24	CC(C)NC(=O)N(C)C[C@H]1Oc2ccc(NS(=O)(=O)c3ccc(Cl)cc3)cc2C(=O)N([C@H](C)CO)C[C@H]1C	-0.7
25	CNC[C@H]1Oc2c(NC(=O)C3CCCCC3)cccc2C(=O)N([C@@H](C)CO)C[C@H]1C	0.0
26	C[C@@H]1CN([C@H](C)CO)C(=O)CCCn2cc(nn2)CO[C@@H]1CN(C)CC1CCCCC1	-0.9
27	C[C@@H]1CN([C@H](C)CO)C(=O)c2cccc(NC(=O)c3ccncc3)c2O[C@@H]1CN(C)Cc1ccc(C(=O)O)cc1	-0.9
28	C[C@H](CO)N1C[C@H](C)[C@H](CN(C)C(=O)c2ccccc2)OCc2cnnn2CCCC1=O	-0.5
29	Cc1noc(C)c1NC(=O)Nc1ccc2c(c1)CC(=O)N([C@H](C)CO)C[C@H](C)[C@@H](CN(C)S(=O)(=O)c1cn(C)cn1)O2	0.3
30	CNC[C@H]1OCCCC[C@@H](C)Oc2ccc(NC(=O)c3ccncc3)cc2C(=O)N([C@@H](C)CO)C[C@H]1C	-0.8

Retrieved by structure from the list above, five records:
#	SMILES	A1 apoptosis 2
12	Cc1ccc(S(=O)(=O)Nc2ccc3c(c2)C(=O)N([C@@H](C)CO)C[C@@H](C)[C@H](CN(C)Cc2ccc4c(c2)OCO4)OCCCC[C@@H](C)O3)cc1	0.7
5	O=C(CCCCC(=O)N/N=C/c1ccoc1)NO	1.2
13	C[C@@H]1CN([C@@H](C)CO)C(=O)c2cccc(NS(=O)(=O)c3ccc(Cl)cc3)c2O[C@H]1CN(C)Cc1ccc(C(=O)Nc2ccccc2N)cc1	-1.0
6	COc1ccc(S(=O)(=O)Nc2ccc3c(c2)C(=O)N([C@@H](C)CO)C[C@@H](C)[C@H](CN(C)C(=O)C2CCCCC2)OCCCC[C@@H](C)O3)cc1	0.3
10	Cc1noc(C)c1NC(=O)Nc1cccc2c1O[C@@H](CN(C)C(=O)NC1CCCCC1)[C@@H](C)CN([C@@H](C)CO)C2=O	0.6

Of the compounds above, these contain an aryl methoxy group.
#	SMILES	A1 apoptosis 2
2	COc1ccc(S(=O)(=O)Nc2ccc3c(c2)C(=O)N([C@@H](C)CO)C[C@H](C)[C@@H](CN(C)C(=O)NC2CCCCC2)OCCCC[C@H](C)O3)cc1	0.5
6	COc1ccc(S(=O)(=O)Nc2ccc3c(c2)C(=O)N([C@@H](C)CO)C[C@@H](C)[C@H](CN(C)C(=O)C2CCCCC2)OCCCC[C@@H](C)O3)cc1	0.3
8	COc1ccc(NC(=O)N(C)C[C@@H]2OCCCC[C@H](C)Oc3ccc(NS(=O)(=O)c4ccc(C)cc4)cc3C(=O)N([C@H](C)CO)C[C@@H]2C)cc1	-0.6
20	COc1ccc(CN(C)C[C@@H]2Oc3ccc(NC(=O)Nc4cccc5ccccc45)cc3CC(=O)N([C@@H](C)CO)C[C@@H]2C)cc1	2.1

(list continues)
#	SMILES	A1 apoptosis 2
31	C[C@H](CO)N1C[C@H](C)[C@@H](CN(C)Cc2ccc(Cl)c(Cl)c2)Oc2c(NC(=O)Nc3ccc(F)cc3)cccc2C1=O	-0.3
32	C[C@@H]1CN([C@H](C)CO)C(=O)Cc2cc(NC(=O)Cc3cn(C)c4ccccc34)ccc2O[C@H]1CN(C)Cc1ccc(-c2ccccc2)cc1	-0.4
33	C[C@H]1CCCCO[C@H](CN(C)Cc2ccc(C(F)(F)F)cc2)[C@@H](C)CN([C@@H](C)CO)C(=O)c2cc(NC(=O)NC3CCCCC3)ccc2O1	1.8
34	COc1ccc(CN(C)C[C@H]2Oc3ccc(NC(=O)Nc4c(C)noc4C)cc3CC(=O)N([C@H](C)CO)C[C@@H]2C)cc1	-0.4
35	C[C@H]1CN([C@@H](C)CO)C(=O)c2cccc(NS(=O)(=O)c3cn(C)cn3)c2O[C@@H]1CN(C)C	1.9
36	C[C@@H]1CN([C@@H](C)CO)C(=O)Cc2cc(NC(=O)Cn3cnnn3)ccc2O[C@@H]1CN(C)S(=O)(=O)c1ccc(F)cc1	0.3
37	C[C@H](CO)N1C[C@H](C)[C@@H](CN(C)S(=O)(=O)c2ccc(Cl)cc2)Oc2c(NC(=O)Nc3cccc4ccccc34)cccc2C1=O	-2.4
38	COc1ccc(S(=O)(=O)Nc2ccc3c(c2)C(=O)N([C@H](C)CO)C[C@@H](C)[C@H](CN(C)C(=O)Nc2ccc4c(c2)OCO4)OCCCC[C@H](C)O3)cc1	0.1
39	C[C@@H]1CN([C@H](C)CO)C(=O)c2cccc(NC(=O)c3nc4ccccc4s3)c2O[C@H]1CN(C)C(=O)NC1CCCCC1	0.1
40	COCCCN1C(=O)[C@@]2(Cc3ccccc31)c1ccccc1C(=O)N(Cc1ccccc1)[C@H]2c1ccc(CO)cc1	0.8
41	C[C@H](CO)N1C[C@H](C)[C@H](CN(C)S(=O)(=O)c2cn(C)cn2)Oc2c(NC(=O)Nc3ccc4c(c3)OCO4)cccc2C1=O	0.6
42	C[C@@H]1CN([C@@H](C)CO)C(=O)Cc2cc(NS(=O)(=O)c3ccccc3)ccc2O[C@H]1CN(C)S(=O)(=O)c1cccs1	0.3
43	Cc1noc(C)c1S(=O)(=O)N(C)C[C@@H]1OCCCC[C@@H](C)Oc2ccc(N(C)C)cc2C(=O)N([C@@H](C)CO)C[C@H]1C	0.2
44	C[C@H](CO)N1C[C@H](C)[C@H](CN(C)C(=O)C2CCCCC2)OCCCC[C@H](C)Oc2ccc(NS(C)(=O)=O)cc2C1=O	0.4
45	C[C@@H]1CCCCO[C@H](CN(C)C(=O)c2ccccc2)[C@H](C)CN([C@H](C)CO)C(=O)c2cc(NS(C)(=O)=O)ccc2O1	-1.2
46	C[C@H](CO)N1C[C@H](C)[C@@H](CN(C)Cc2ccccc2)OCCCC[C@H](C)Oc2ccc(NC(=O)C3CCCCC3)cc2C1=O	-0.1
47	C=CC[C@@]1(C(=O)NCC(O)CO)N=C(c2ccc(OCCCO)cc2)O[C@@H]1c1ccccc1 (some centres not stated)	-0.1
48	C[C@@H]1CN([C@H](C)CO)C(=O)CCCn2cc(nn2)CO[C@@H]1CN(C)C(=O)Nc1cccc2ccccc12	-0.6
49	C[C@H]1CN([C@@H](C)CO)C(=O)c2cc(NC(=O)Nc3ccc(F)cc3)ccc2O[C@H]1CN(C)S(=O)(=O)c1ccc(F)cc1	0.0
50	Cc1noc(C)c1S(=O)(=O)Nc1ccc2c(c1)C(=O)N([C@H](C)CO)C[C@H](C)[C@@H](CN(C)C)OCCCC[C@@H](C)O2	0.4
51	COc1ccc(NC(=O)Nc2ccc3c(c2)C(=O)N([C@H](C)CO)C[C@H](C)[C@H](CN(C)Cc2ccc(C(=O)O)cc2)OCCCC[C@@H](C)O3)cc1	-0.1
52	C[C@@H]1CN([C@H](C)CO)C(=O)Cc2cc(NC(=O)CCN3CCOCC3)ccc2O[C@H]1CN(C)Cc1ccc(C(F)(F)F)cc1	-0.7
53	C[C@@H]1CCCCO[C@@H](CN(C)C(=O)CCC(F)(F)F)[C@@H](C)CN([C@@H](C)CO)C(=O)c2cc(NS(=O)(=O)c3ccccc3)ccc2O1	-0.9
54	C[C@H]1CN([C@@H](C)CO)C(=O)c2cccc(NC(=O)Nc3cccc4ccccc34)c2O[C@@H]1CN(C)C(=O)Nc1ccc(C(F)(F)F)cc1	-0.1
55	O=C(CCCCCCC(=O)Nc1ccccc1O)N/N=C/c1cccc(B(O)O)c1	0.1
56	COc1ccc(S(=O)(=O)N(C)C[C@@H]2Oc3ncc(Br)cc3C(=O)N([C@H](C)CO)C[C@@H]2C)cc1	0.3
57	C[C@@H]1CCCCO[C@@H](CN(C)Cc2ccc(C(F)(F)F)cc2)[C@H](C)CN([C@H](C)CO)C(=O)c2cc(NC(=O)Nc3ccc(C(F)(F)F)cc3)ccc2O1	-0.3
58	Cc1noc(C)c1NC(=O)N(C)C[C@@H]1OCCCC[C@@H](C)Oc2ccc(N(C)C)cc2C(=O)N([C@@H](C)CO)C[C@H]1C	0.3
59	C[C@@H]1CN([C@@H](C)CO)C(=O)c2cc(NC(=O)CCC(F)(F)F)ccc2O[C@@H](C)CCCCO[C@@H]1CN(C)S(=O)(=O)c1cccs1	-1.1
60	C[C@H]1CN([C@@H](C)CO)C(=O)CCCn2cc(nn2)CO[C@@H]1CN(C)Cc1ccc(-c2ccccc2)cc1	-1.1
61	COc1ccc(CN(C)C[C@@H]2Oc3ccc(NC(=O)CCC(F)(F)F)cc3C(=O)N([C@@H](C)CO)C[C@@H]2C)cc1	-1.4
62	C[C@@H]1CN([C@@H](C)CO)C(=O)c2cc(NC(=O)CCCCCC(=O)Nc3ccccc3N)ccc2O[C@H]1CN(C)Cc1ccccc1	0.2
63	C[C@@H]1CN([C@@H](C)CO)C(=O)c2cc(NC(=O)CCC(F)(F)F)ccc2O[C@@H](C)CCCCO[C@@H]1CN(C)Cc1ccccc1	1.1
64	C[C@@H]1CN([C@@H](C)CO)C(=O)c2cc(NC(=O)C3CCCCC3)ccc2O[C@@H]1CN(C)S(C)(=O)=O	-0.5
65	Cc1noc(C)c1NC(=O)Nc1cccc2c1O[C@H](CN(C)Cc1ccncc1)[C@H](C)CN([C@H](C)CO)C2=O	-1.1
66	C[C@H]1CN([C@@H](C)CO)C(=O)Cc2cc(NC(=O)Cc3cn(C)c4ccccc34)ccc2O[C@H]1CN(C)S(=O)(=O)c1ccc(F)cc1	2.1
67	C[C@@H]1CCCCO[C@H](CN(C)S(=O)(=O)c2ccc(Cl)cc2)[C@H](C)CN([C@@H](C)CO)C(=O)c2cc(NC(=O)Nc3cccc4ccccc34)ccc2O1	0.2
68	Cc1ccc(S(=O)(=O)Nc2ccc3c(c2)C(=O)N([C@H](C)CO)C[C@@H](C)[C@H](CN(C)Cc2ccc(C(F)(F)F)cc2)OCCCC[C@H](C)O3)cc1	-0.1
69	Cc1noc(C)c1S(=O)(=O)Nc1ccc2c(c1)C(=O)N([C@H](C)CO)C[C@H](C)[C@H](CN(C)C(=O)CCC(F)(F)F)OCCCC[C@@H](C)O2	0.1
